Screening results as filed in PubChem BioAssay.
PMP22 txn prim – Cell-based coincidence reporter assay to measure PMP22 gene transcription in S16 Pmp22-F2sN cells - Primary screen; Potency, µM (doses to about 57.5 µM), for inactives: at the highest dose activity change, negative = inhibition, usual class: inhibitors; S16 Pmp22-F2sN Schwann cells (luciferase reporters placed in the Pmp22 gene), FLuc/NLuc coincidence luminescence, 24 h; hit rate 2% among 43,000; active = clear falling dose curves in both reporters; inconclusive = both reporters move, but less clearly or upward; inactive = either reporter flat; the % is the NLuc reporter signal; note: % is set by controls: 0 for no effect and ±100 for the full control effect; some results filed as inactive show a strong effect at the top dose
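Schwann cells carrying the coincidence reporter were exposed to library compounds for 24 h at 37C, then lysed and read for FLuc and, after quenching, NLuc luminescence on a CCD imager.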
HTT promoter inh – Primary qHTS for Identification of Small Molecule Inhibitors of Huntingtin Promoter Activity; hit rate 0.93% among 48,000; AID 1508623, 2021; Potency, µM (top dose mostly 57.5 µM), inactives show at the top dose activity change, negative = inhibition, most hits filed as inhibitors; HEK293 HTT promoter firefly luciferase reporter (activity 0% = vehicle and -100% = no light), 24 h; active = well fitted inhibition curve with a large enough effect; inconclusive = small, poorly fitted or top-dose-only effect; inactive = no such curve, though single readings can be large or run the other way; note: nearly all actives have a fitted effect of over 50% in size
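Firefly luciferase readout (Dual-Glo, 10 min RT) after 24 h, 37 °C compound exposure (final up to 57.5 uM) of HEK293 reporter cells cultured 24 h beforehand; PTC124 at 50 uM final as control inhibitor; activity scaled vehicle 0%, zero RLU -100%.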
Numbers without * were called inactive; ? = inconclusive; nt = not tested or not shown; [ ] = dose if it differs, or a comment. Potency is the fitted concentration of half-maximal effect.

SMILES	PMP22 txn prim	HTT promoter inh
CCC(Oc1ccccc1)C(=O)Nc1ccc2oc(-c3ccc(OC)cc3)nc2c1 (stereo not given)	1.7%	14.1%
COc1ccc(CNC(=O)c2ccc(CS(=O)(=O)c3ccc(Br)cc3)o2)cc1	2.0%	?
CCn1nc(C)c2c(-c3ccccc3)cc(=O)n(C(C)C(=O)NCCC(C)C)c21 (stereo not given)	?	0.0%
CCCCNC(=O)CSc1nnc(C)c2c(C)n(-c3ccccc3)nc12	?	-15.3%
COc1cc(C(CC(=O)NCc2ccccc2Cl)N2Cc3ccccc3C2=O)cc(OC)c1OC (stereo not given)	-18.0%	-20.6%
FC(F)(F)C(Cl)Br (stereo not given)	nt	7.2%
CCOC(=O)CNC(=O)CC(c1cc(OC)c(OC)c(OC)c1)N1Cc2ccccc2C1=O (stereo not given)	14.5%	-9.4%
COc1ccc(-c2nc3sc(CCNC(=O)C(=O)Nc4cccc(NC(C)=O)c4)c(C)n3n2)cc1	-1.0%	?
Clc1ccc(Nc2c(-c3cccs3)nc3ccc(Cl)cn23)cc1	-13.5%	18.1%
Nc1nc(N)c(-c2ccccc2)s1	nt	5.5%
CCn1cc2nc(SCC(=O)Nc3cc(OC)cc(OC)c3)n(Cc3ccc(Cl)cc3)c(=O)c2n1	-36.2%	-22.8%
CCOC(=O)C1CCC(CN(Cc2ccccc2)S(=O)(=O)c2ccc(Cl)cc2)CC1 (stereo not given)	5.5%	?

4 compounds already listed, arranged by the value under HTT promoter inh, rising:
compound	HTT promoter inh
CCn1cc2nc(SCC(=O)Nc3cc(OC)cc(OC)c3)n(Cc3ccc(Cl)cc3)c(=O)c2n1	-22.8%
CCCCNC(=O)CSc1nnc(C)c2c(C)n(-c3ccccc3)nc12	-15.3%
Nc1nc(N)c(-c2ccccc2)s1	5.5%
CCC(Oc1ccccc1)C(=O)Nc1ccc2oc(-c3ccc(OC)cc3)nc2c1 (stereo not given)	14.1%

(next part)
SMILES	PMP22 txn prim	HTT promoter inh
COc1ccc(NC(=O)CC2C(=O)N(c3cccc(OC)c3)C(=O)N2CCC2=CCCCC2)cc1 (stereo not given)	?	?
CSc1nn(Cc2ccccc2C)c(NC(C)=O)c1S(=O)(=O)c1ccc(C)cc1	3.3%	?
COc1ccc(NC(=O)CC2Oc3ccc(C)cc3NC2=O)cc1Cl (stereo not given)	?	-26.1%
CCCc1nnc(SCc2cc(=O)c3c(C)cc(C)cc3[nH]2)n1C	0.4%	-2.3%
CCn1cc(C(=O)N2CCN(c3cc(C)ccc3C)CC2)c(=O)c2cc(S(=O)(=O)N3CCCCC3)ccc21	-2.2%	-16.2%
Cc1ccc(/C=C/c2onc(C)c2S(=O)(=O)N2CCC(C(=O)N3CC(C)Oc4ccccc43)CC2)cc1 (stereo not given)	?	?
Cc1ccc2[nH]c3c(=O)n(CC(=O)NCc4ccco4)ncc3c2c1	-9.9%	0.9%
COc1ccc(Cl)cc1NC(=O)c1ccc2nc(Cc3ccccc3)oc2c1	5.2%	?
CC1CCN(CCNC(=O)c2ccc(Cn3c(SCc4ccccc4)nc4cccnc43)cc2)CC1	-5.3%	11.6%
Cc1ccc(-n2c(SCC(=O)Nc3cccc(Cl)c3)nc3n[nH]c(C)c3c2=N)cc1	?	?
COc1ccc(C(=O)N2CC(=O)Nc3ccc(C)cc3C2c2ccccc2)c(OC)c1 (stereo not given)	-4.3%	-20.7%
COc1cc(NC(=O)CSc2cc(=O)n(C)c3ccccc23)cc(OC)c1OC	-6.3%	-41.0%
COc1ccccc1-c1noc(-c2ccc(NCc3ccccc3)c([N+](=O)[O-])c2)n1	-5.3%	-7.6%
CCOC(=O)c1ccc(NC(=O)Cn2nnc(-c3ccc(C(F)(F)F)cc3)n2)cc1	-37.2%	-8.3%
COc1ccc(-n2cc(C(=O)NCCc3ccc(C)cc3)c3ccccc3c2=O)cc1	-11.6%	-13.6%
c1ccc(CN2CCN(c3ncnc4c3cnn4-c3ccccc3)CC2)cc1	?	4.1%
CCC(=O)Nc1ccc2nc3c(=O)n(C)c(=O)n(C)c3nc2c1	-13.8%	8.4%
CC(C)Cn1c(=O)c2ccccc2n2c(CCC(=O)Nc3ccc(F)c(F)c3)nnc12	?	6.3%
COc1ccc(-c2cn3c(n2)sc2cc(C(=O)NCCCN4CCCCCC4)ccc23)cc1	-10.8%	?
Cc1cccc(Cn2cc(S(=O)(=O)c3cccc(Cl)c3)c(=O)c3cc(F)c(N4CCOCC4)cc32)c1	-1.5%	-5.3%
Cc1oc(-c2ccc(Cl)cc2)nc1CS(=O)CC(=O)N1CCN(c2cccc(C(F)(F)F)c2)CC1 (stereo not given)	?	?
CCN(C(=O)Cn1nc(Cc2ccncc2)c2ccccc2c1=O)c1cccc(Cl)c1	?	-4.5%
Cc1cccc(NC(=O)c2cnc3sc(N4CCCC4)nn3c2=O)c1C	3.2%	-0.5%
CCc1ccccc1NC(=O)CN1C(=O)c2ccccc2Sc2ncccc21	3.9%	-24.9%
Cc1ccc(Cl)cc1NC(=O)Nc1cccc(OCc2cc(=O)n3ccccc3n2)c1	-38.6%	13.8%
Cc1cc(C)nc(-n2nc(C)c3c2N(C)C(=O)CC3c2ccc(Cl)cc2)n1 (stereo not given)	-4.3%	-11.0%
O=S(=O)(c1cccc2ccccc12)N1CCN(c2ccc(Cl)c(Cl)c2)CC1	-7.2%	-2.6%
Cc1ccc(CN(Cc2cccn2-c2nnc(N3CCCC3=O)s2)C(=O)Nc2ccccc2Cl)cc1	?	-23.4%
CCn1cc2c(n1)-c1c(oc(C(=O)Nc3cccc(C)c3C)c1C)CC2	?	67.0%[activator]
CCOc1ccc(-n2nc3cc(C)c(NC(=O)c4cc(OCC)c(OCC)c(OCC)c4)cc3n2)cc1	4.7%	-6.8%[11.5 µM]
COc1cc(OC)cc(-c2nc(-c3cccc(C)c3)no2)c1	10.8%	60.8%[activator]
Cc1nn(C(=O)COc2ccc(Cl)cc2)c(C)c1Sc1ccccc1	-15.9%	0.7%
Cc1ccc(Cn2cnc3nc4c(cc3c2=O)CC(C)CC4)cc1 (stereo not given)	-1.4%	46.6%[activator]
Cc1ccc(N(CC(=O)Nc2cc(C)cc(C)c2)S(=O)(=O)c2cccc3nonc23)cc1	-6.7%	-4.8%
Cc1ccc2nc(N3CCC(C(=O)N4CCN(c5cccc(C)c5C)CC4)CC3)[nH]c2c1	?	?
O=S(=O)(NCCc1csc(-c2ccc(F)cc2)n1)c1ccc(F)cc1F	?	?
CCOC(=O)c1c(NC(=O)c2cc(Cl)ccc2Cl)sc2c1CCCC2	2.9%	-10.3%
Cc1c(O)cccc1C(=O)N[C@@H](CSc1ccccc1)[C@H](O)CN1C[C@H]2CCCC[C@@H]2C[C@@H]1C(=O)NC(C)(C)C	nt	?
CCCCN1C(=O)c2[nH]nc(-c3ccccc3O)c2C1c1ccc(OCc2ccccc2)cc1 (stereo not given)	?	25.1µM*
Cc1ccc(CNC(=O)Cn2ccn(-c3ccc(F)cc3)c(=O)c2=O)cc1	3.6%	4.4%
Cc1c(Cl)cccc1-n1c(SCC(=O)NCc2ccccc2)nc2n[nH]c(C)c2c1=N	?	?
Cc1ccc(Oc2c(C(F)(F)F)oc3c(CN4CCCCC4)c(O)ccc3c2=O)cc1	-9.3%	-41.6%
Cc1cccc(N2CCN(C(=O)CS(=O)(=O)c3cccc4nsnc34)CC2C)c1 (stereo not given)	-23.3%	-13.3%
COc1ccccc1-c1noc(-c2ccc(N3CCOCC3)c([N+](=O)[O-])c2)n1	-28.3%	37.5%[activator]
CN(Cc1ccccc1)C(=O)CCS(=O)(=O)c1cc(Br)cc2c1N(C(=O)C1CC1)CC2	?	-15.4%
CCc1cccc(C)c1NC(=O)CN1CCCN(Cc2ccc(C)cc2)S1(=O)=O	-13.8%	-23.8%
CCOC(=O)c1c(C)oc2nc(C)nc(NCc3ccc(F)cc3)c12	-7.8%	6.8%
O=C(Oc1cccc2cccnc12)c1ccccc1	nt	-34.2%
Cc1ccc(NC(=O)CN2C=NS(=O)(=O)c3ccccc32)c(C)c1	-5.9%	-9.7%
COc1ccc(Br)cc1CNC(=O)CSc1cc(=O)n(C)c2ccccc12	-14.8%	-12.7%
Cc1cc(=O)n(Cc2ccc(Cl)cc2)c2c1c(C)nn2-c1ccccc1	-1.3%	-8.8%
CCN1CCN(C(c2ccc(C)cc2)c2sc3nc(-c4ccco4)nn3c2O)CC1 (stereo not given)	-6.9%	10.7%
CCOC(=O)c1ccc(N2C(=O)c3n[nH]c(-c4cccs4)c3C2c2ccc(OC)cc2OC)cc1 (stereo not given)	?	?
CN(C)c1ccc(NC(=O)CSc2nc3ccsc3c(=O)n2CCCCCC(=O)O)cc1	0.7%	5.5%
Cc1c(Cl)cccc1NC(=O)Cn1cnc(S(=O)(=O)N2CCCC2)c1	54.3%	-15.9%
Cc1ccc2onc(CNC(=O)NCc3cccc(Cl)c3)c2c1	-5.6%	-23.4%
CN(c1ccccc1)S(=O)(=O)c1nnc(NC(=O)C2CCCCC2)s1	2.6%	-12.9%
Cc1cccc(N2CCN(c3ncnc4onc(-c5ccc(F)cc5)c34)CC2C)c1 (stereo not given)	?	?
CCN(C(=O)Cn1nc(Cc2ccncc2)c2ccccc2c1=O)c1cccc(C(F)(F)F)c1	?	-0.2%
O=C(c1cccs1)N1CCCc2cc(NS(=O)(=O)c3ccc(Cl)cc3)ccc21	3.5%	?

Profiles as entered above:
Profile of COc1ccc(Br)cc1CNC(=O)CSc1cc(=O)n(C)c2ccccc12 → PMP22 txn prim: -14.8%; HTT promoter inh: -12.7%
Profile of Cc1cc(=O)n(Cc2ccc(Cl)cc2)c2c1c(C)nn2-c1ccccc1 → PMP22 txn prim: -1.3%; HTT promoter inh: -8.8%

Following part.
SMILES	PMP22 txn prim	HTT promoter inh
Cc1ccc(NC(=O)N(Cc2c[nH]c3ccccc23)C2CCCCCC2)cc1C	?	14.3%
Cc1cccc(C(=O)N2CCc3cc(CNC(=O)Cc4ccc(F)cc4)ccc32)c1	?	?
COc1ccc2cc(C=O)ccc2c1	nt	20.3%
O=C(Nc1ccccc1C(=O)OCc1cc(=O)n2c3c(sc2n1)CCCC3)c1ccc(F)cc1	5.3%	-19.5%
CC(C)CCNC(=O)Nc1ccc2c(c1)N(C)C(=O)c1ccccc1S2	?	?
CCOC(=O)c1c(C)c(C(=O)NCc2ccc(Cl)cc2)c(C)n1CC	-16.4%	?
Cc1ccc(C2CCN(C(=O)c3cnn(-c4ccc(C)cc4)c3C3CCN(C(=O)OC(C)(C)C)CC3)C2)cc1 (stereo not given)	-24.9%	25.3%
CCOCCc1nn2c(=O)cc(COC(=O)c3ccc(NC(=O)C4CCCCC4)cc3)nc2s1	-52.4%	-11.4%
CCOC(=O)C1CCN(C(c2ccc(C)cc2)c2sc3nc(-c4ccco4)nn3c2O)CC1 (stereo not given)	23.4%	0.0%
COc1cc(OC)c(NC(=O)Cn2c(=O)oc3cc(S(=O)(=O)N4CCCC4)ccc32)cc1Cl	-18.3%	?
COc1ccc(CCNc2ncnc3c2nnn3C)cc1OC	-28.9%	-26.2%
Cc1nc(-c2ccc(S(=O)(=O)N3CCN(c4ccccc4F)CC3)cc2)co1	-25.2%	?
Cc1ccc(-c2nc3sc(CCNC(=O)c4ccc(Br)o4)c(C)n3n2)cc1	?	8.1%
COc1ccc2c(c1)CC(C(=O)NCCc1ccc(S(N)(=O)=O)cc1)CO2 (stereo not given)	21.7%	-12.7%
O=C(CCSCc1cccc(Cl)c1)N1CCN(c2ccc(Cl)cc2)CC1	6.0%	-11.9%
COc1cccc(CNC(=O)c2ccc3nc(-c4ccccc4)c(-c4ccccc4)nc3c2)c1OC	-94.5%	-14.8%
CN(C)C(=O)c1ccc(NC(=O)Cn2nc(-c3ccccc3)c3ccccc3c2=O)cc1	8.3%	-19.2%[11.5 µM]
CCOC(=O)c1cc(OC(=O)c2cc(Cl)ccc2OC)n(-c2ccccc2)n1	-2.5%	-5.0%
CCOc1ccccc1CN1CCN(S(=O)(=O)c2ccccc2)CC1	?	?
CCn1cc(S(=O)(=O)c2ccccc2)c(=O)c2cc(F)c(N3CCCCCC3)cc21	?	-15.8%
Cc1nc2c(c(C)nn2C(C)(C)C)c(C)c1CCC(=O)Nc1ccc(F)cc1	?	-19.3%
Cc1cc(Nc2cccc(C(F)(F)F)c2)nc2ccc(NC(=O)Cc3ccc(Cl)cc3)cc12	?	?
COc1cc(OC)cc(C(=O)Nc2nc(-c3nnn(-c4ccc(F)c(Cl)c4)c3C)ns2)c1	?	?
CCc1ccc(N2CCn3c2nc2c3c(=O)n(Cc3ccc(F)cc3)c(=O)n2C)cc1	-13.8%	0.3%
N#Cc1ccc(NC(=O)C2Cc3ccccc3CN2S(=O)(=O)c2ccc(F)cc2)cc1 (stereo not given)	-27.3%	?
Cc1ccc(CNS(=O)(=O)c2ccc3c(c2)CCN3S(C)(=O)=O)cc1	2.6%	-28.9%
COc1ccccc1NC(=O)CSc1nnc(-c2nonc2NC(C)=O)n1-c1ccccc1	-4.3%	-27.9%
Cc1nc(-c2cccc(S(=O)(=O)N3CCC(C(=O)NCc4ccccc4)CC3)c2)no1	9.1%	-33.5%
